MT1-MMP promoter: inhibitors of MT1-MMP promoter transcription, cell-based, luciferase reporter, luminescence (AID 618); calls from a first round at 10 µM; hits with a dose series show EC50 in µM; 0.62% of 87,000 active; MT1-MMP promoter luciferase reporter cells, luminescence;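 active means over half of the reporter light lost at 10 µM or EC50 under 50 µM; inactive means the rest and hits that failed the dose series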;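 further: actives suppress MT1-MMP promoter-driven transcription so potencies describe inhibitors; HT1080 fibrosarcoma cells; overnight exposure; toxic or luciferase-blocking compounds were not removed from the actives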
WNV NS2B-NS3 inh: inhibitors of WNV NS2B-NS3 protease, primary screen, biochemical, fluorogenic substrate; Genome polyprotein (West Nile virus), P06935; fluorogenic substrate Ex360/Em465; hits give low values; z-score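 (tested at a level between 10 and 100 µM)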; 0.18% of 65,000 active; AID 577, 2007;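 active means z-score at -3 or under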;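 further: score is relative to mean and spread of the compound wells of a plate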
Target sequence (P06935 1371-1501 limits assumed): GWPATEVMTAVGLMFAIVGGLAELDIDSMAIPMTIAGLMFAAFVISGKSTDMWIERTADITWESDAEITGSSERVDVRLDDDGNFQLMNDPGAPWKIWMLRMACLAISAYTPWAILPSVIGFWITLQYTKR
Target sequence (P06935 1502-1679 limits assumed): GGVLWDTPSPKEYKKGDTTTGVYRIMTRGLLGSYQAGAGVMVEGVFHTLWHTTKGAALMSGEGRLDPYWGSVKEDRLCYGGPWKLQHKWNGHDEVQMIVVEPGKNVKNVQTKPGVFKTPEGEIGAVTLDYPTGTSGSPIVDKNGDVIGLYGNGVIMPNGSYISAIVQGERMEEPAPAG
Hsc70: Hsc70 inhibitors, probe displacement, primary screen, biochemical, fluorescence polarization (AID 568) | Heat shock cognate 71 kDa protein (Homo sapiens) | Hsc70 fluorescence polarization, probe displacement; higher % means a stronger effect; strong numbers were not always called active | 83,000 tested, under 10 active | one-dose displacement, % at 20 µM; IC50 in µM for titrated hits;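 active means displacement above 50% without optical interference and an IC50 on retest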;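 further: ATPase domain with a fluorescein-tagged ATP probe; 0% = vehicle and 100% = excess ADP; read after one hour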
Numbers without * were called inactive; i = inactive; . = no result given. A portion of the library. The share of hits here may be higher or lower than overall.

SMILES	MT1-MMP promoter	WNV NS2B-NS3 inh	Hsc70
COc1ccc(OC)c(NS(=O)(=O)c2ccc3c(c2)CCC(=O)N3)c1	i	0.76	-6.2%
COc1ccc(-n2c(Cc3cccn3C)nnc2SCC(=O)N2CCC(C)CC2)cc1	i	-0.61	117.0%
CCC(=C(c1ccc(OC)cc1)c1ccc(OC)cc1)c1cn(CC(O)CN2CCN(C)CC2)c2ccccc12 (stereo unspecified)	i	.	2.6%
Cc1noc(C)c1CSc1cc(C)c2ccccc2n1	i	-0.4	16.9%
CCOC(=O)c1nnn(-c2nonc2N)c1-c1ccccc1	i	-0.66	1.7%
CN(C)CCNc1oc(COc2ccc(Cl)cc2Cl)nc1C#N	i	.	4.6%
C=CCn1c(=O)c(C(=O)NCCc2ccccc2)c(O)c2ccccc21	i	2.33	-1.7%
CCOC(=O)C1=C(N)OC2=C(C(=O)CCC2)C1c1cccnc1 (stereo unspecified)	i	-0.03	-1.9%
CCCn1c(=N)n(CCOCCOCCn2c(=N)n(CCC)c3ccccc32)c2ccccc21	i	.	-4.6%
O=C(O)c1ccccc1CSc1ncn[nH]1	i	.	2.6%
CCCCC(O)(C(NC=O)C(=O)OC)C(F)(F)F (stereo unspecified)	i	-0.2	5.7%
CCCOc1ccc(C(CC(=O)O)NS(=O)(=O)c2ccc(NC(C)=O)cc2)cc1 (stereo unspecified)	i	-0.28	0.3%
COc1ccc(NC(=O)C2CCN(c3cc(C)nc(-c4ccccc4)n3)CC2)cc1	i	-1.74	4.4%
Cc1cc(C)c2c(CN3CCN(C/C=C/c4ccccc4)CC3)cc(=O)oc2c1	i	-0.58	-1.3%
Cc1cccc(-c2noc(CN(C(=O)c3c(-c4ccccc4Cl)noc3C)C(C)C)n2)c1	i	0.78	-2.0%
Cc1[nH]nc2c1C(c1ccccn1)N(c1ccc(Br)cc1)C2=O (stereo unspecified)	i	-0.51	-0.6%
O=C(CN1CCCCC1)Nc1ccccc1NC(=O)CN1CCCCC1	i	-0.5	-4.0%
Cc1cc(NCCOCCO)n2ncc(-c3ccc(Cl)cc3)c2n1	i	-1.04	5.0%
COC(=O)c1nc(N)sc1-c1ccccc1	i	-0.54	0.7%
COc1ccccc1OCC(=O)N1CCN(c2ccccc2OC)CC1	i	0.96	-0.1%
CN(C(=O)c1cccc(C#N)c1)c1nnc(C2CCCO2)s1 (stereo unspecified)	i	0.51	3.1%
CC(C)CC(=O)N1CCN(S(=O)(=O)c2ccc(F)cc2)CC1	i	0.32	4.7%
COCCNC(=O)CN(C(=O)Cn1nnc2ccccc21)c1ccccc1	i	-1.86	3.2%
O=C(Nc1nn[nH]n1)c1cccc(Oc2ccccc2)c1	i	1.94	3.6%
CCOC(=O)C1CCN(C(=O)CCCCn2c(=O)[nH]c3ccccc3c2=O)CC1	i	0.28	2.7%

Following part
SMILES	MT1-MMP promoter	WNV NS2B-NS3 inh	Hsc70
CCc1ccccc1OCCCCCNCCO	i	-0.25	-1.9%
O=C(CSc1ncccn1)NCc1ccc(F)cc1	i	0.38	2.4%
Cn1ncc2c(Nc3ccc(-c4ccccc4)cc3)ncnc21	i	0.25	2.8%
Clc1ccc(Cc2nn3c(-c4ccncc4)nnc3s2)cc1	i	0.04	-2.0%
CCn1c(=O)n(CC)c2cc(S(=O)(=O)N3CCOCC3)ccc21	i	-0.14	1.9%
Cn1c(=O)c2c(nc(NCc3ccco3)n2CCc2ccccc2)n(C)c1=O	i	0.15	-1.9%
CC1=CC(C)(C)Nc2cc(C)c(C)cc21	i	-1.88	4.1%
Cc1cccc(N2CCN(C(=O)CCNS(=O)(=O)c3ccc4c(c3)CCC(=O)N4)CC2)c1C	i	-1.44	-0.4%
CCOC(=O)c1sc(NC(=O)COC(=O)Cn2cnc3ccccc32)c(C(=O)OCC)c1C	i	-0.27	9.9%
C=CCOc1cccc(C2C(C(=O)c3ccc(C)o3)=C(O)C(=O)N2CCN(C)C)c1 (stereo unspecified)	i	-0.1	-2.9%
CCCC(=O)Nc1nn(CCC)c2nc3ccccc3cc12	i	-0.16	-5.6%
Cc1nc(SCC(=O)Nc2ccc(F)cc2)c2oc3ccccc3c2n1	i	0.05	5.9%
Cc1nc2ccccc2n1CC(=O)N1CC(=O)Nc2ccccc21	i	-0.87	8.5%
COc1ccc(NC(=O)c2cccc(NC(=O)C3C4CC5OC(=O)C3C5C4)c2)c(OC)c1 (stereo unspecified)	i	-0.14	0.9%
Cc1nc(N2CCc3ccccc3C2)[nH]c(=O)c1CCC(C)C	i	-0.28	2.8%
CCOC(=O)C1=C(C)NC(=O)NC1c1ccc(OCCO)c(OC)c1 (stereo unspecified)	i	-0.16	0.2%
COC(=O)c1ccc(NC(=O)NS(=O)(=O)c2ccc(C)cc2)cc1	i	1.39	-3.5%
CC(C)(C)n1nnnc1C(c1ccc(F)cc1)N(Cc1ccc(F)cc1)Cc1ccco1 (stereo unspecified)	i	.	2.5%
COCCN(CC(=O)Nc1ccccc1)S(=O)(=O)c1ccc(S(=O)(=O)N2CCCC2)cc1	i	-0.04	1.3%
O=c1c2c3nc4ccccc4nc3n(-c3ccc4c(c3)OCCO4)c2ncn1C1CCCC1	i	0.47	-28.0%
OCCNc1nc(Nc2ccccc2)nc2ccccc12	i	.	-1.6%
COc1cccc(-c2nnc(NC(=O)c3ccccc3Br)o2)c1	i	0.44	4.4%
c1ccc(-c2nnnn2CCOCCn2nnnc2-c2ccccc2)cc1	i	1.03	5.8%
O=C(NCc1ccc(N2CCCC2=O)cc1)c1cn(CCc2ccccc2)nn1	i	0.33	1.5%
COc1ccc(C2/C(=C(\O)c3cc(C)ccc3C)C(=O)C(=O)N2CCN(C)C)cc1OC (stereo unspecified)	i	-1.69	-1.3%

Continuation:
SMILES	MT1-MMP promoter	WNV NS2B-NS3 inh	Hsc70
CN1CCC(=NNC(=O)C(=O)NC2CCCC2)CC1	i	.	0.3%
COc1ccc(N2CCN(C(=O)Cn3nnc(-c4cccs4)n3)CC2)cc1	i	-0.27	-1.9%
CC(C(=O)OCc1nnc(-c2ccccc2)o1)N1C(=O)c2ccccc2C1=O (stereo unspecified)	i	-1.62	-10.5%
CCCCNCc1cc(OCC)c(OCC(N)=O)cc1Br	i	.	3.5%
CCOc1ccccc1-n1c(COc2ccc(C)cc2)nnc1SCC(N)=O	i	0.98	-5.2%
Cn1nnnc1SCC(=O)c1c(N)n(C)c(=O)n(C)c1=O	i	-0.76	-1.9%
O=C(Nc1cc2nn(-c3ccccc3)nc2cc1Cl)c1ccco1	i	-0.21	-3.9%
OCc1n[nH]c(CO)n1	i	0.19	5.7%
COC(=O)Nc1nnc(Cc2ccc(OC)cc2)s1	i	0.53	-0.7%
COc1ccc(C(=O)CN2C(=O)NC(C)(c3ccccc3)C2=O)cc1OC (stereo unspecified)	i	.	-4.2%
Cc1c(C(=O)OCC2CCCO2)[nH]c2c1C(=O)CC(c1ccc(N(C)C)cc1)C2 (stereo unspecified)	i	0.2	-0.3%
CCCCCn1c(CN2CC(C)OC(C)C2)nc2c1c(=O)n(C)c(=O)n2C (stereo unspecified)	i	-0.91	5.4%
Nn1c(SCC(=O)Nc2ccc(F)cc2F)nnc1-c1cccnc1	i	1.29	-0.1%
Cn1[nH]c(=O)c2ccccc2c1=O	i	0.55	4.9%
O=C(NCC1(c2ccccc2)CCCC1)C1(c2ccccc2)CCCC1	i	.	1.7%
COc1ccc(OCC(=O)Nc2ccccc2C(=O)N2CCCC2)cc1	i	-0.21	-1.6%
C=CCOC(=O)Nc1snnc1C	i	.	-2.7%
CC(C)(C)NC(=O)CN(C(=O)C1CSC(=O)C1)c1ccc2c(c1)OCCO2 (stereo unspecified)	i	-0.58	-5.3%
O=C(Nc1cc(Cl)ccc1N1CCOCC1)c1cnccn1	i	1.27	11.3%
S=c1[nH]nc(-c2ccc(Cl)cc2)n1Cc1ccccc1	i	.	-0.8%
O=C(NC1CCCC1)C1CCCN1S(=O)(=O)c1cccc2cccnc12 (stereo unspecified)	i	0.63	2.1%
Nc1c(C(=O)OCC2CCCO2)c2nc3ccccc3nc2n1C1CCCCC1 (stereo unspecified)	i	1.21	4.7%
Cc1ccc(S(=O)(=O)N(C)CC(=O)NC2CCCC2)cc1	i	-0.9	10.0%
Cc1cc(C)c2c3c(sc2n1)C1(CCSCC1)C(C#N)=C(N)O3	i	-0.54	-1.0%
O=C1OC(c2ccccc2)=N/C1=C\N1CCCCC1	i	.	0.7%

A draw from above in order of SMILES length, falling.
SMILES	MT1-MMP promoter	WNV NS2B-NS3 inh	Hsc70
CCCn1c(=N)n(CCOCCOCCn2c(=N)n(CCC)c3ccccc32)c2ccccc21	i	.	-4.6%
C=CCn1c(=O)c(C(=O)NCCc2ccccc2)c(O)c2ccccc21	i	2.33	-1.7%
CCCC(=O)Nc1nn(CCC)c2nc3ccccc3cc12	i	-0.16	-5.6%

Continued.
SMILES	MT1-MMP promoter	WNV NS2B-NS3 inh	Hsc70
CC1CCCN(C(=O)Cn2nnc(-c3cccnc3)n2)C1 (stereo unspecified)	i	-1.24	0.9%
COCCCn1c(Cc2csc(Nc3cccc(Cl)c3)n2)nnc1SCC(=O)OC1CCCCC1	i	.	-1.8%
Cc1ccc(-c2noc(C3CCN(S(=O)(=O)c4ccc5c(c4)OCCO5)CC3)n2)o1	i	0.88	5.8%
Cn1nc(-c2ccc(C(=O)N3CCN(c4ccccc4)CC3)cc2)c2ccccc2c1=O	i	0.63	2.0%
CCOC(=O)c1[nH]c2ccc(OC)cc2c1NC(C)=O	i	1.04	1.3%
COC(=O)C(C)NC(=O)C(C)NC(=O)OCc1ccccc1 (stereo unspecified)	i	-0.98	-2.6%
Fc1ccc(-c2oncc2-c2nnnn2-c2ccccc2)cc1F	i	.	6.3%
Cc1occc1-c1nnc(SCC(=O)c2ccc(Cl)cc2)n1CC1CCCO1 (stereo unspecified)	i	1.01	-3.6%
COC(=O)c1ccc(C)c(NC(=O)C2COc3ccccc3O2)c1 (stereo unspecified)	i	1.51	1.7%
O=C(CSc1nn(-c2ccccc2)c(=S)s1)NC(=O)NCc1ccco1	i	.	-2.2%
CCC(=O)N1CCc2cc(Br)cc(S(=O)(=O)NCC3CCCO3)c21 (stereo unspecified)	i	-0.79	5.2%
CCOC(=O)c1c(-c2ccccc2)[nH]c2ccc(O)cc12	i	1	0.2%
CC(=O)c1cccc(NC(=O)c2ccc(N(Cc3ccc(C)cc3)S(C)(=O)=O)cc2)c1	i	.	-1.1%
CCOc1ccc(NC(=O)Nc2ccc(N(C)C(C)=O)cc2)cc1	i	1.24	-3.1%
COC(=O)CC(=O)Cc1nc(N)nc(Nc2ccc(C)c(C)c2)n1	i	-0.72	1.8%
COc1ccc(OC)c(Nc2nc(N)nc(CSc3nnc(-c4ccncc4)o3)n2)c1	i	.	1.1%
c1ccc(CCn2nnnc2C(c2cccnc2)N2CCN(c3nc4ccccc4s3)CC2)cc1 (stereo unspecified)	i	-0.2	-5.2%
O=C(CSc1nnc(-c2cccs2)n1Cc1ccco1)Nc1ccc2c(c1)OCO2	i	0.69	2.0%
Cc1nc2sc(C(c3ccco3)N3CC(C)OC(C)C3)c(O)n2n1 (stereo unspecified)	i	0.03	-6.6%
CC(C)NC(=O)CN(c1cccc(Br)c1)S(C)(=O)=O	i	-0.52	-13.5%
CC(C)(NC(=O)N1CCCC1)c1cccc(C(C)(C)NC(=O)N2CCCC2)c1	i	0.34	-4.1%
Cn1c(/C=C/N2CCOCC2)c(C(=O)c2ccc(Br)cc2)c(=O)n(C)c1=O	i	-0.24	5.9%
O=C(Nc1ccc2c(c1)OCO2)c1ccc(S(=O)(=O)NCC2CCCO2)cc1 (stereo unspecified)	i	2.06	-6.2%
Cc1ccc(C)n1-c1ccc(-c2nnco2)cc1	i	0.11	0.8%
CCOc1ccc(-n2cnnn2)cc1S(=O)(=O)NC1CC1	i	.	5.7%

Carrying on:
SMILES	MT1-MMP promoter	WNV NS2B-NS3 inh	Hsc70
CCCOc1cc(C)c(S(=O)(=O)n2ccc(C)n2)cc1C	i	0.22	-7.5%
CCOC(=O)C1C(c2ccc(C)o2)NC(=O)NC1(O)C(F)(F)F (stereo unspecified)	i	-0.95	-2.4%
CS(=O)(=O)N1CCC(C(=O)Nc2ccc(Br)cc2F)CC1	i	-1.07	2.6%
C=CCNC(=O)c1ccc(C(=O)c2ccccc2)cc1	i	-0.35	-0.1%
O=C(NCCN1CCc2ccccc2C1)C1CC(=O)N(C2CCCC2)C1 (stereo unspecified)	i	0.2	2.1%
Cc1nnc(NC(=O)C2CCCN(S(=O)(=O)Cc3ccccc3)C2)s1 (stereo unspecified)	i	-1.01	1.3%

Some values from the entries so far.
Cc1c(C(=O)OCC2CCCO2)[nH]c2c1C(=O)CC(c1ccc(N(C)C)cc1)C2 (stereo unspecified) in WNV NS2B-NS3 inh has 0.2
CC(C(=O)OCc1nnc(-c2ccccc2)o1)N1C(=O)c2ccccc2C1=O (stereo unspecified) in WNV NS2B-NS3 inh has -1.62
Cc1nc2ccccc2n1CC(=O)N1CC(=O)Nc2ccccc21 in Hsc70 has 8.5%
S=c1[nH]nc(-c2ccc(Cl)cc2)n1Cc1ccccc1 in Hsc70 has -0.8%
CCOC(=O)c1c(-c2ccccc2)[nH]c2ccc(O)cc12 in Hsc70 has 0.2%
O=c1c2c3nc4ccccc4nc3n(-c3ccc4c(c3)OCCO4)c2ncn1C1CCCC1 in Hsc70 has -28.0%
C=CCOC(=O)Nc1snnc1C in Hsc70 has -2.7%

Screens (PubChem BioAssay)
